# CapD inh – CapD enzyme inhibition. purified CapD enzyme, fluorescence intensity read-out; stronger effect = lower value; some hits fall short of the stated cut. z-score (no concentration beside the values). actives 0.23% (n = 140,000). AID 492967;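 active = z-score under -4 in either of two replicates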;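 note: stock transfer was 100 nL into about 40 µL; score is relative to mean and spread of the plate; one replicate is shown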
# AID504770 – E. coli YBA685 growth inhibition, screen for V. cholerae RctB inhibitors. E. coli YBA685 rctB-dependent plasmid, OD600 growth, 3 h; stronger effect = lower value. AID 504770. actives 0.27% (n = 130,000). z-score (test concentration not listed);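 active = z-score under -2 on both plates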;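 note: wells of about 30 µL received 100 nL stock; score is relative to mean and SD of the test wells; the first replicate is given; strong numbers were not always called active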
# * marks the source's active call; other numbers are inactive results; / = no result given; & = joins results of further samples. Not a hit list; 0.37% or so of the library scored in one or more.
SMILES,CapD inh,AID504770
CN=C1SC(CC(=O)Nc2sc3c(c2C(=O)OC)CCCC3)C(=O)N1C (configuration not stated),0.325,/
CC1CCC/C(=C(\C#N)c2nc(-c3ccccc3)cs2)C1 (configuration not stated),-0.48,/
COC(=O)Cn1c(O)c(N=NC(=O)C2C(=O)NCC2c2ccccc2)c2ccccc21 (configuration not stated),-0.265,-0.85
CCc1cc2c(=O)n(Cc3ccco3)c(SC(C)C(=O)N3CCc4ccccc43)nc2s1 (configuration not stated),/,-0.95
Cc1cccc(N=C2C(=O)N(c3ccccc3)c3ccccc32)c1,0.225,-1.4
COc1cc(COC(=O)c2ccc3c(c2)S(=O)(=O)N=C2CCCCCN23)cc(OC)c1OC,/,0.5
COc1ccc(OC)c(NC(=O)c2cccc(N3C(=O)C4CC=CC(C)C4C3=O)c2)c1 (configuration not stated),-0.525,/
O=C(O)/C=C/c1ccc(/C=N/NC(=O)c2csc(CS(=O)(=O)Cc3ccco3)n2)cc1,-1.04,/
Cc1ccc2c(c1)-c1onc(C(=O)N(CC(C)C)CC(C)C)c1CO2,0.2,0.35
Cc1cc(C)n(NC(=S)NC2CCCC2)c(=O)c1C#N,-2.67,-0.9
COc1ccc(Cl)cc1NC(=O)c1sc2ncn(CC(=O)Nc3ccc(C)c(Cl)c3)c(=O)c2c1C,-0.415,/
CNCc1ccc(Cl)c(Cl)c1,/,-0.35
CN(C)c1ccc(C2C3=C(CC(C)(C)CC3=O)Nc3ccc4ccccc4c32)cc1 (configuration not stated),0.78,/
CCOC(=O)c1c(C)n(-c2ccc(C)cc2)c2ccc(OCC(O)CN3CCN(C)CC3)cc12 (configuration not stated),-2.33,1.15
NC(=O)COC(=O)COc1ccc(C(=O)c2ccccc2)cc1,/,1.5
CCOc1ccc(-c2nc(CSCC(=O)N3CCOCC3)c(C)o2)cc1,1.68,0.65
Cc1ccc(N(Cc2ccco2)C(=O)c2cccnc2)cc1,0.15,-2.55
CCOC(=O)Cc1csc(NC(=S)NC(=O)c2sc3ccccc3c2Cl)n1,-0.6,/
O=C1c2cccnc2C(=O)N1Cc1ccc(S(=O)(=O)N2CCCCC2)cc1,-0.035,1.35
COc1ccc(-n2nc3c(c2NC(=O)c2ccc(S(=O)(=O)N4CCCC4)cc2)CSC3)cc1,-0.415,/
O=C(OCC(=O)c1c[nH]c2ccccc12)c1ccc2c(=O)n3c(nc2c1)CCCCC3,/,-3.4
Cc1cccc2c1-c1sc(C(=O)NCCN(C)C3CCCCC3)cc1CO2,-0.51,-0.05
C#CCN1C(=O)C2(C(C(=O)OCC)=C(N)Oc3ccccc32)C2=C1CC(C)(C)CC2=O (configuration not stated),/,-0.7
COc1ccc(C2Nc3cccc4cccc(c34)N2)c(OC)c1OC,33.2,/
O=c1[nH]c(=O)n(-c2ccccc2)c(O)c1C=Nc1ccc(S(=O)(=O)N2CCCCC2)cc1,/,0.05
O=C(OCc1csc(-c2ccccc2)n1)C1CC(=O)N(Cc2ccco2)C1 (configuration not stated),/,-0.9
N#Cc1ccc(-c2cccs2)nc1SCCOc1ccccc1,47.3,1
Cn1c(SCC(=O)Nc2ccccc2Oc2ccccc2)nc2ccccc2c1=O,0.235,-1.55
Cc1nc2c(C(=O)N3CCC4(CC3)OCCO4)cnn2c(C)c1Cc1ccccc1Br,15.2,/
O=C(CSCc1cccc2ccccc12)NNC(=S)Nc1ccc(OC(F)(F)F)cc1,0.24,/
CC(=O)OC[C@H]1O[C@@H](n2cnc3c(=O)[nH]cnc32)C(OC(C)=O)[C@H]1OC(C)=O (some centres not stated),0.09,/
COc1ccccc1N(CCCN1C(=O)c2cccc3cccc(c23)C1=O)C(=O)c1cc(OC)c(OC)c(OC)c1,3.67,/
O=C(Nc1cccc(C2=NCCN2)c1)Nc1cccc(C2=NCCN2)c1,0.17,0.1
CCOC(=O)c1c(C(=O)OCC)c(C)n(N2C(=O)CSC2=S)c1C,-0.15,-0.75
CCC(=O)N/C(N)=N\c1nc(C)c2cc(OC)ccc2n1,13.7,-0.05
CC1=C(C(=O)OC2CCCC2C)C(c2ccccc2OCc2ccccc2)NC(=O)N1 (configuration not stated),0.28,/
O=C(CSc1nc2ccccc2c(=O)n1CCc1ccccc1)c1ccc(Cl)cc1,4.82,-0.35
Brc1cccc(C2Nc3cccc4cccc(c34)N2)c1,0.395,/
c1ccc(OCCNc2nnnn2-c2ccccc2)cc1,/,0.1
CCOC(=O)C1=C(c2ccccc2)OC(N)=C(C#N)C1C1CCCCC1 (configuration not stated),0.215,-0.95
COCCOC(=O)C1=C(C)NC(SC)=C(C#N)C1c1ccccc1Cl (configuration not stated),/,-0.2
COC(=O)c1ccc2c(c1)N(Cc1ccc(Cl)cc1Cl)C(=O)CS2,-0.405,/
N/C(=N/S(=O)(=O)c1ccc(Cl)c(Cl)c1)c1cccnc1,0.705,/
Cc1ccc(NC(=O)Cn2nnc(C(=O)Nc3ccc(Br)cc3)c2N)cc1F,0.27,0
CN1C/C(=C\c2ccc(F)c(F)c2)C(=O)/C(=C/c2ccc(F)c(F)c2)C1,0.325,1.3
N#CC1=C(N)Oc2n[nH]c(-c3ccncc3)c2C1c1cc(Br)ccc1OC(=O)N1CCOCC1 (configuration not stated),-0.365,/
Cc1cc(Oc2ccccc2)nc(Oc2ccc(OCCOc3ccc(Br)cc3)nn2)n1,4.32,-0.45
CC(=O)Nc1cccc(C(=O)NC2CCN(Cc3c(F)cccc3Cl)CC2)c1,-0.085,-0.65
CC(=O)c1sc(-c2cccs2)cc1N,0.075,/
CCc1nc2ccc(C(=O)NCCc3ccco3)cc2nc1CC,0.18,0.4
CC(C)(CC(=O)O)CC(=O)N1CCC(O)(c2ccc(Cl)c(C(F)(F)F)c2)CC1,0.6,/
CC1=C2C(=NCCN1)C(=O)N(c1ccccc1)C2c1cccnc1 (configuration not stated),-1.9,-0.5
CC1=NN(c2ccc([N+](=O)[O-])cc2)C(=O)C1[N+](=O)[O-] (configuration not stated),-2.91,/
CC(C)CNc1nc(SCC(N)=O)nc(N(C)C)n1,0.945,-0.55
CCCN(CC(=O)Nc1ccc(S(N)(=O)=O)cc1)C(C)C(=O)Nc1cccc(Cl)c1 (configuration not stated),/,0.25
O=C(O)CCCN1C(=O)c2ccccc2C1=O,0.62,0.4
O=C(OCCOc1ccc([N+](=O)[O-])cn1)N1CCC(O)(c2cccc(C(F)(F)F)c2)CC1,0.07,/
CCCNC(=O)c1ccc(N2CCC3(CC2)OCCO3)c(NC(=O)c2cc3ccccc3oc2=O)c1,0.235,/
COc1cc(Nc2ncnc3c2cnn3-c2ccc(Cl)cc2)cc(OC)c1OC,2.92,1.2
COc1ccc(CCNC2=CC(=O)OC23CCCCC3)cc1OC,-0.05,1.75

# Quoted at random: 2 records from the list
SMILES,CapD inh,AID504770
CC(=O)c1sc(-c2cccs2)cc1N,0.075,/
COc1ccc(CCNC2=CC(=O)OC23CCCCC3)cc1OC,-0.05,1.75

# More compounds:
SMILES,CapD inh,AID504770
CC(Oc1coc(CN2CCN(Cc3ccccc3)CC2)cc1=O)c1ccccc1 (configuration not stated),/,-0.2
Cc1[nH]c(=O)c(C#N)c(C)c1CCC(=O)N1CCN(S(=O)(=O)c2ccc(Cl)s2)CC1,/,1.65
O=C(O)C1C2C=CC(O2)C1C(=O)NCc1ccccc1Br (configuration not stated),0.29,-0.8
COc1ccc2[nH]c(C(=O)NCCN3CCCCC3)cc2c1,44.9,0.25
CCOc1cc(-c2nc3sc4c(c3c(=O)[nH]2)CCCC4)ccc1OCCOCCOc1ccccc1C,0.69,/
CCOC(=O)C1=C(C)N=c2s/c(=C\c3ccc(N(C)C)o3)c(=O)n2C1c1c(OC)ccc2ccccc12 (configuration not stated),0.24,/
CCC(C)n1c(SCC(=O)OC)nnc1-c1cccc(S(=O)(=O)N2CCOCC2)c1 (configuration not stated),/,-3.75
Cn1c(=O)c2c(nc(SCc3nc(N)nc(N4CCOCC4)n3)n2C)n(C)c1=O,-0.525,/
O=c1cc(-c2cccs2)nc(-c2cccc(I)c2)o1,-0.135,0.7
CCc1n[nH]c(=S)c2cc3sccc3n12,-0.13,-0.05
Cc1ccc(-c2cnc3ccccc3n2)c(C)c1,-0.1,/
O=C(CN1CCC(c2nc3ccccc3s2)CC1)N1CCCCC1,/,-0.2
Cc1ccc(C(=O)Oc2ccc(/C=N/c3cccs3)cc2)cc1,-0.625,-0.05
COC(=O)c1cc(OC)c(OC)cc1NS(=O)(=O)c1ccsc1C(=O)OC,-0.715,1.5
Nc1nc2sc3c(c2cc1C(=O)N1CCOCC1)CCCC3,/,-0.7
COc1ccc(CC(=O)NNC(=O)c2ccc(NC(C)=O)cc2)c(OC)c1,0.835,/
CCN(CC)CCNC(=O)c1sc2ncnc(N3CCN(c4ccccn4)CC3)c2c1C,-0.84,/
Cc1nc2cc(NC(=O)NC3=NCCS3)ccc2n1C,1.46,-0.65
CCOC(=O)N1CCN(c2nc3c(c(=O)n(C)c(=O)n3C)n2CCSc2nnc(C)s2)CC1,/,-0.85
Cc1ccc(N2C(=O)CSC23C(=O)N(CN2CCN(c4ccccc4F)CC2)c2ccccc23)cc1Cl (configuration not stated),-0.66,/
COC(=O)c1ccccc1NC(=S)N(N)CCO,-0.34,/
COc1ccc(OC(=O)c2cc3ccccc3oc2=O)cc1,-0.815,-1
CN1CCN(S(=O)(=O)c2ccc(Cc3ccc(S(=O)(=O)N4CCN(C)CC4)cc3)cc2)CC1,-0.01,-0.25
O=C(NC1(C(F)(F)F)OCCO1)c1ccc(F)cc1,/,-0.1

# As entered above:
# In CapD inh, CN1CCN(S(=O)(=O)c2ccc(Cc3ccc(S(=O)(=O)N4CCN(C)CC4)cc3)cc2)CC1 is entered as -0.01
# In CapD inh, Cc1nc2cc(NC(=O)NC3=NCCS3)ccc2n1C is entered as 1.46
# In CapD inh, Cc1ccc(N2C(=O)CSC23C(=O)N(CN2CCN(c4ccccc4F)CC2)c2ccccc23)cc1Cl (configuration not stated) is entered as -0.66

# The main list resumes, starting 5 compounds before the break.
SMILES,CapD inh,AID504770
Cc1ccc(N2C(=O)CSC23C(=O)N(CN2CCN(c4ccccc4F)CC2)c2ccccc23)cc1Cl (configuration not stated),-0.66,/
COC(=O)c1ccccc1NC(=S)N(N)CCO,-0.34,/
COc1ccc(OC(=O)c2cc3ccccc3oc2=O)cc1,-0.815,-1
CN1CCN(S(=O)(=O)c2ccc(Cc3ccc(S(=O)(=O)N4CCN(C)CC4)cc3)cc2)CC1,-0.01,-0.25
O=C(NC1(C(F)(F)F)OCCO1)c1ccc(F)cc1,/,-0.1
OCC(O)C(O)C(O)C(O)c1nc2ccccc2[nH]1 (configuration not stated),/,-0.15
CCN(CC)S(=O)(=O)c1ccc(C)cc1,-0.555,/
C=C(C)Cn1c(=O)c2c(nc3n2CC(C)CN3Cc2ccccc2)n(C)c1=O (configuration not stated),/,-0.9
COC(=O)Cn1c(=O)oc2ccccc21,0.395,0.55
CCOC(=O)/C(C#N)=C/c1ccsc1,-2.38,-1.85
Cc1ccc(C2=NNC(c3cccnc3)=Nc3ccc(F)cc32)o1,/,-0.4
COc1ccc(C(=O)Nc2ccc(Cl)cc2)cc1S(=O)(=O)N1CC(c2ccccc2)CC1=O (configuration not stated),-0.735,0.1
CN(CC(=O)N=c1sccn1C)S(=O)(=O)c1ccc(Cl)cc1,/,-0.85
CCNCC1(c2ccc(OC)c(OC)c2)CCCC1,/,-0.85
Cn1nnnc1SCC(=O)NC(C)(C)C,-0.32,-0.3
Cc1ccc2c(COC(=O)c3ccccc3NCc3ccco3)cc(=O)oc2c1C,/,0.2
CNc1nsc(C(=O)c2ccc(F)cc2)c1N,-3.04,-0.9
Cn1nc(C(F)(F)F)c2cc(NC(=O)OCC(C)(C)C)sc21,-0.045,0.35
CC(=O)Oc1ccc(N2C(=O)C3ON(c4ccccc4)C(c4ccc(F)cc4)C3C2=O)cc1 (configuration not stated),-0.85,-3.55
COc1cc([N+](=O)[O-])ccc1-n1c(/C=C/c2ccccc2)nc2ccccc2c1=O,-0.015,/
O=C(c1cccs1)n1ccc(-c2nn(-c3ccc(Cl)cc3)ccc2=O)n1,0.555,/
CC(C)(C)NC(=O)CS(=O)(=O)c1cn(CC(=O)N2CCCCC2)c2ccccc12,/,-0.85
O=C(NCCc1ccccc1)c1cc2sccc2n1Cc1ccc(Cl)cc1,0.395,0.25
CC(C)c1ccc(C2=NN(c3ccccc3)C3(SC(c4ccccc4)=NN3c3ccccc3)c3ccccc32)cc1 (configuration not stated),-0.32,/
CC(=O)Nc1nc(-c2ccc(C(C)(C)C)cc2)nc2c1c(=O)oc1ccccc12,-0.62,/
CC(C)(C)C(=O)OCc1noc(-c2ccc(Cl)c(Cl)c2)n1,-0.335,0.2
O=C1CC(c2ccccc2Br)C2=C(CCCC2=O)N1 (configuration not stated),0.62,0.45
O=C(O)c1ccc(-c2nnc(-c3ccccc3Cl)o2)cc1,4.61,0.9
O=C(Nc1ccc(-n2cnnn2)cc1)c1ccccc1C(F)(F)F,/,-1.05
NC(=O)c1ccc(C(F)(F)F)[nH]c1=O,80.6&92.2,-0.55&-0.6
CC1CCN(c2nnc(NC(=O)Cn3c(=O)oc4ccccc43)s2)CC1,-0.305,-0.3
N#Cc1cccc(NC(=O)CCCc2ccccc2)c1,0.19,0.2
COC(=O)c1ccc(NC(=S)Nc2cc(C)[nH]n2)cc1,-0.105,-0.25
Nc1cccc(C(=O)N2N=C(C(F)(F)F)CC2(O)c2ccc(F)cc2)c1 (configuration not stated),-1.85,/
COc1ccc(S(=O)(=O)N(CC(=O)N2CCCC2)c2ccccc2)cc1,-0.36,/
O=C(N/C=N/O)C(c1ccc(Cl)cc1)c1ncc(C(F)(F)F)cc1Cl (configuration not stated),-0.965,/
Cc1cc(C2C(C#N)=C(N)N(c3ccc(Br)cc3)C3=C2C(=O)CCC3)c(C)s1 (configuration not stated),0.04,/

# Whole records, looked up by structure:
# Results for `CC1CCN(c2nnc(NC(=O)Cn3c(=O)oc4ccccc43)s2)CC1` = CapD inh = -0.305; AID504770 = -0.3
# Results for `COc1ccc(S(=O)(=O)N(CC(=O)N2CCCC2)c2ccccc2)cc1` = CapD inh = -0.36; AID504770 = /

# Screening data from PubChem.
